Screening data (PubChem BioAssay)
PABP polyA inh: PABP-poly(A) binding inhibition | 290,000 tested, 1% active | P11940 | AID 2014 | inhibition, % at 35 µM | PABP-poly(A) RNA binding, fluorescence polarization;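 active = 50% or more with normal probe brightness, or confirmed in later tests; inconclusive = above 50% with abnormal brightness, or retests that disagree; inactive = below 50% or failed in later tests; about a fifth of its hits are not listed in these tables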;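 also: calls also rest on retests at 20 µM and on dose response follow-up; controls were probe without protein and protein plus probe with vehicle; some compounds called inactive have numbers as strong as hits; many hits fall short of the cut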
Target sequence (P11940 whole entry, looked up): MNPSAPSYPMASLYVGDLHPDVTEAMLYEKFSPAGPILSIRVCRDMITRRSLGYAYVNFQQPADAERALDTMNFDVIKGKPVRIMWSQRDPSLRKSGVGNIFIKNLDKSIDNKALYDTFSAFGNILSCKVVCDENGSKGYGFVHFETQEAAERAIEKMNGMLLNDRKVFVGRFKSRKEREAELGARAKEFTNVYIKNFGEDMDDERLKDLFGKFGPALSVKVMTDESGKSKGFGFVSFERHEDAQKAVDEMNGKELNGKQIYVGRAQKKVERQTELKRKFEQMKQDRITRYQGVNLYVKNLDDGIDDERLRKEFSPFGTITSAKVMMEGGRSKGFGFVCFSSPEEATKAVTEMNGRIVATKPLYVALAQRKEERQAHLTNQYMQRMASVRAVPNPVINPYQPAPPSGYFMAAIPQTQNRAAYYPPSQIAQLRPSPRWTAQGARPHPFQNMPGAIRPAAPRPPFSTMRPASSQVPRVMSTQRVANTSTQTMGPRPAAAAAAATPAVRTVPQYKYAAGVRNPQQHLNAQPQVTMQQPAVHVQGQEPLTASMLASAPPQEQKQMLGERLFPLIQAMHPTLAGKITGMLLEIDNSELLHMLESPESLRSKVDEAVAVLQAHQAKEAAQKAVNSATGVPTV
Rce1 inhib: yeast Ras-converting enzyme inhibition. Q03530. yeast membranes, quenched prenylated peptide cleavage fluorescence. calls only. 290,000 tested, 0.27% active;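 active = fall in fluorescence gain of 50% or more versus controls, with final raw signal at or below 3038400; inconclusive = same 50% fall but final raw signal above 3038400; inactive = fall in fluorescence gain under 50%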;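 also: plate controls were neutral control wells for no effect and wells lacking membranes for full effect; tested at 10 µM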
MT1-MMP act inh: blocks activation of human MT1-MMP. 360,000 tested, 0.061% active. GFP/RFP ratio change, % at 20 µM. AID 651647. P50281. HT1080 RFP-PRO-GFP cells, GFP/RFP ratio fluorescence, overnight; percent of plate control window, DMSO zero;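 active = GFP/RFP ratio change of at least 30% with cell ATP level not reduced by more than half and red fluorescence within 50% of control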; also: strong numbers were not always called active
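Assay system: HT1080 RFP-PRO-GFP cells | Dosing: 20 µM single dose, 1% DMSO | Incubation: Cells overnight before dosing, compound overnight, 37 °C, 5% CO2 | Evaluation: GFP/RFP fluorescence ratio | Control set: DMSO-only wells and HT1080 RFP-L50D-GFP cell wells as references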
CSC inhib: cancer stem cell inhibition | cancer stem cell-like cells viability, luminescence | inhibition, % at 7.5 µM | 300,000 tested, 1.1% active | AID 2717;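 active = mean at 75% or more and at least half the replicates too; inconclusive = mean and replicates disagree; tested in HMLE shEcad cells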;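 also: 0% = median of negative and 100% = median of positive control wells; the first replicate is given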
UUG fidelity: modulators of start codon recognition fidelity in yeast; S. cerevisiae UUG-firefly luciferase reporter, luminescence/redox ratio; activity score, % at 18.7 µM; 350,000 tested, 0.13% active; AID 602363;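 active = replicate mean at a twofold rise or more, about +100% in these data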;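 also: firefly luciferase made from a UUG start codon reports start codon fidelity; reporter light over untreated wells divided by growth signal over untreated wells; some hits fall short of that in this replicate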
HIV Env fusion: blocks HIV Env-driven cell-cell fusion; HeLa-JRFL Env/CEM21 cell fusion, luciferase; inhibition, % at 12.3 µM; 360,000 tested, 1.1% active; AID 651610;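 active = mean replicate inhibition score of at least 50 and every replicate individually at or above 50; inconclusive = only one of the two criteria met; inactive = mean below 50 and not all replicates reaching 50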;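 also: 0% = plate neutral controls and 100% = maraviroc near 300 nM; one replicate is shown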
eIF4H inh: inhibitors of RNA binding by human eIF4H; inhibition, % at 35 µM; AID 2012; eIF4H fluorescence polarization binding assay; Q15056; 290,000 tested, 0.94% active;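 active = 50% or more with normal probe brightness, or confirmed in later tests; inconclusive = above 50% with abnormal brightness, or retests that disagree; inactive = below 50% or failed in later tests; about a fifth of its hits are not listed in these tables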;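 also: calls also rest on retests at 20 µM and on dose response follow-up; 0% = protein and probe with vehicle and 100% = probe without protein; strong numbers were not always called active; many hits fall short of the cut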
eIF4H inh retest: further read-out of eIF4H inh, marked with its call; inhibition, %; compound at 20 µM; confirmation average;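 mean of two retest wells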
PABP polyA inh retest: second read-out of PABP polyA inh, no call of its own (marks repeat the call); inhibition, %; compound at 20 µM; confirmation repeats;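 mean of two retest wells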
MT1-MMP act inh RFP: second read-out of MT1-MMP act inh, no call of its own (marks repeat the call); RFP signal change, %; measured here: RFP expression control read;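 0 = vehicle wells; hits needed this value within 50% of zero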
* marks the source's active call; other numbers are inactive results; i = inactive; ? = inconclusive; nt = not tested or not shown. Some of the compounds tested; count on the stated rates, not on these rows.

SMILES	PABP polyA inh	Rce1 inhib	MT1-MMP act inh	MT1-MMP act inh RFP	CSC inhib	UUG fidelity	HIV Env fusion	eIF4H inh	others
CCCC(=O)c1c[nH]c(C(=O)NCCCN2CCOCC2)c1	5	i	0	2	-10	-18	nt	-9
CN(CC(=O)Nc1ccc(C#N)cc1)Cc1ccc(Cl)cc1	-12	i	-3	-1	-3	-14	nt	3
CC1(C)CC(=O)C2=C(C1)OC(=O)C2(NC(=O)c1cccs1)C(F)(F)F (centres undefined)	11	i	11	5	-8	-12	nt	6
Cc1ccc2cccc(S(=O)(=O)Nc3ccc4c(c3)OCO4)c2n1	19	i	-1	2	-8	20	-12	47
CC(=O)Nc1ccc(/C(C)=N/NC(=O)c2ccncc2)cc1	2	i	2	7	9	-11	-4	-3
COc1ccc(-c2cc(C(=O)N3CCCC(C(F)(F)F)C3)c3ccccc3n2)cc1OC (centres undefined)	nt	i	2	-3	20	0	4	nt
COc1ccc(N2CCN(C(=O)/C(C#N)=C/c3ccccc3)CC2)cc1	-7	i	-20	4	-1	nt	4	8
CSc1nnc2n(Cc3ccccc3)c(=O)c3c4c(sc3n12)COC(C(C)C)C4 (centres undefined)	3	i	nt	nt	-5	nt	nt	0
Cc1ccc(N2C(=S)N=C(Nc3ccccc3C)C23CCOC(C)(C)C3)cc1 (centres undefined)	-3	nt	18	-3	8	-8	-15	-6
COc1ccc(NC(=O)CN(C)C(=O)c2ccc(N3CCCC3)c([N+](=O)[O-])c2)cc1	nt	nt	1	-1	0	nt	1	nt
COc1ccc2nc(C)cc(SCC(=O)N/N=C/c3ccco3)c2c1	8	i	1	-1	7	nt	11	29
COc1ccc2nc(N3C(=O)/C(=C/c4ccccc4)NC3=S)sc2c1	38	i	-134	-2	-3	-22	-26	?
C=CCNC(=O)c1ccccc1CCc1ccccc1	-2	i	-3	-3	-4	6	17	4
O=C(COC(=O)C1CSC2(c3ccc(F)cc3)CCC(=O)N12)NC(=O)NC1CCCC1 (centres undefined)	8	i	0	-2	-4	nt	7	2
Cc1cccc(C(=O)NNC(=O)/C=C/C(=O)O)c1	-7	i	4	2	0	nt	3	-4
COc1ccc(C2(C(=O)NCCCN(C)C)CCOCC2)cc1	8	i	-1	6	7	-19	3	-8
CCCC(c1nnnn1C1CCCC1)N1CCN(c2ccccc2F)CC1 (centres undefined)	27	nt	-4	-1	-3	7	nt	-1
CCCC(=O)Nc1cccc(NC(=O)Cc2ccc(Cl)cc2)c1	nt	nt	2	-1	nt	-3	-4	nt
CCOC(=O)c1c(NC(=O)COc2ccccc2OCC)sc2c1CC(C)(C)NC2(C)C	nt	i	-2	-1	2	-14	nt	nt
CC(=O)Nc1ccc(C(=O)N/N=C/c2ccncc2)cc1	9	i	0	1	5	nt	-6	-2
N#C/C(=C\c1ccc(-c2cccc(C(F)(F)F)c2)o1)C(=O)Nn1cnnc1	3	i	-4	2	13	-12	15	6
Cc1ccc2c(c1)C1CN(C)CCC1N2C(=O)c1cccc(S(=O)(=O)N2CC(C)CC(C)C2)c1 (centres undefined)	5	nt	-1	1	13	nt	2	-14
CCS(=O)(=O)NCCc1csc(-c2ccc(OC)c(OC)c2)n1	0	?	4	-1	3	nt	-90	3
CCc1ccccc1NC(=S)N(Cc1ccco1)C(C)c1cccs1 (centres undefined)	3	i	-3	1	-8	-19	11	-8
O=C(O)c1ccc(-n2c(-c3ccccc3)n[nH]c2=S)cc1	-3	i	6	3	-11	-21	-11	-3
Cc1cccc(C)c1N(CC(=O)Nc1cccc(N(C)S(C)(=O)=O)c1)S(C)(=O)=O	-12	i	-1	0	-2	3	-104	-1
COc1ccc(NS(=O)(=O)c2cc(NC(=O)/C=C/c3cccs3)ccc2N2CCOCC2)cc1	-5	i	-2	-10	23	nt	7	-3
COC(=O)CC/C(O)=C1\C(=O)CC(C)(C)CC1=NCc1nc2ccccc2[nH]1	-2	i	1	0	9	-29	-11	-16
COc1ccc(CNS(=O)(=O)CCNC(=O)c2ccc3c(c2)OCO3)cc1	nt	i	5	0	nt	-5	-6	nt
O=C(O)/C=C/c1ccc([N+](=O)[O-])o1	-7	nt	-8	2	-24	nt	-1	82	eIF4H inh retest=-5;PABP polyA inh retest=10
Cc1ccc(NC(=O)C2CCCN(S(=O)(=O)c3c(C)noc3C)C2)nc1 (centres undefined)	-10	i	4	-4	0	-17	nt	-6
CN(CC(=O)NC1CCN(Cc2ccccc2)CC1)S(=O)(=O)c1ccc(Br)s1	10	i	1	-7	8	2	8	-2
Cc1nc(NC(=O)c2ccc(Cl)cc2)sc1-c1csc(Nc2cccc(F)c2)n1	4	i	nt	nt	12	nt	nt	-5
COc1ccccc1N(CC(=O)NCc1ccc(F)cc1)C(=O)CCC(=O)Nc1nccs1	3	i	nt	nt	11	-3	3	1
COc1ccc(NC(=O)c2cnc(SCC(=O)NCCc3ccccc3)n(C)c2=O)cc1	nt	i	2	1	1	-2	3	nt
COCCCC1CCN(C(=O)CCc2nnc(CCCCc3ccccc3)o2)CC1	-8	i	1	0	2	-3	2	-2
Cc1cccc2cc(/C=N/NC(=O)[C@H]3C[C@@H]3c3ccccc3)c(Cl)nc12	-2	i	1	0	5	-3	-7	-4
COCCCNC(=O)c1ccc2nc(Cc3ccc(OC)cc3)oc2c1	5	i	5	2	-5	-1	-51	4
Cc1ccc(S(=O)(=O)NC(=O)COc2ccccc2C(N)=O)cc1	19	i	0	3	-10	-15	-55	-10
CCCN(CCC)CCCNC(=S)Nc1ccc2nc(N3CCCC3)cc(C)c2c1	46	nt	8	4	1	-10	4	19
Cc1cc(NC(=O)CCS(=O)(=O)c2ccc(F)cc2)no1	nt	i	4	0	-7	-21	-16	nt
O=C(O)/C(=C/c1ccco1)c1ccccc1	7	i	nt	nt	-3	nt	nt	5
O=C(NC1CCCCC1)C(c1ccc2ncccc2c1)N(Cc1ccc2c(c1)OCO2)C(=O)c1cccs1 (centres undefined)	-13	i	-21	-16	-4	-5	nt	-1
CN(C)CC/C=C1\c2ccccc2Sc2cc(F)c(Cl)cc21	nt	i	-8	-10	27	nt	6	nt
O=C(CSc1ncc(-c2ccccc2)[nH]1)Nc1ccccc1F	3	i	1	-2	-1	nt	-38	4
S=C(NCc1cccnc1)Nc1ccc(Oc2ccc(Cl)cc2)cc1	3	i	-2	-28	34	-37	15	-9
COC(=O)c1ccccc1NS(=O)(=O)c1ccc(F)cc1	-6	i	1	-3	nt	-9	-2	-6
COc1ccc(N2C(=O)CS(=O)C(c3ccccc3)C2=O)cc1 (centres undefined)	-10	i	6	12	14	nt	-28	4
COc1ccc(-c2nnc3sc(-c4cccs4)nn23)cc1OC	11	i	-5	-11	-3	-18	nt	6
COc1ccc(-c2noc(=O)n2CC(=O)N2CCC(Cc3ccccc3)CC2)cc1	8	i	2	-5	-9	nt	3	8
O=C(CCCCCN1C(=O)CCC1=O)Nc1ccc2c(c1)OCCO2	-2	i	0	4	-1	9	nt	0
Cc1cc(C)cc(-n2c(C)cc(/C=C3\C(=N)N4N=C(CC(C)C)SC4=NC3=O)c2C)c1	2	i	-23	-19	103*	nt	3	21
COCc1cc(=O)n2[nH]c(-c3ccsc3-n3c(C)ccc3C)cc2n1	66*	i	-9	19	-7	-6	-58	80*
CCCn1cc(S(=O)(=O)c2ccccc2)c(=O)c2cc(OC)c(OC)cc21	-2	i	2	13	2	-1	4	-9
COc1ccc(/C=N/NC(=O)NC23CC4CC(CC(C4)C2)C3)c(OC)c1	-2	i	0	0	-1	-13	-82	1
COc1ccc(Br)cc1CNC(=O)CCc1nc(-c2ccccc2F)no1	11	i	-1	-5	nt	-16	nt	3
CN(C)CCP(=O)(c1ccccc1)c1ccccc1	3	i	-9	-7	1	-5	1	-1
Cc1cc(NC(=O)Cn2c(=O)n(Cc3ccccc3)c(=O)c3ccccc32)no1	-17	i	5	2	5	-21	-104	2
COc1cccc(NC(=O)CC2SC(=Nc3ccccc3)NC2=O)c1 (centres undefined)	2	i	6	-3	nt	-15	nt	1
CCCOc1ccc2ccccc2c1/C=N/n1cnnc1	-8	i	7	-3	10	-19	91*	-16
(more compounds)
SMILES	PABP polyA inh	Rce1 inhib	MT1-MMP act inh	MT1-MMP act inh RFP	CSC inhib	UUG fidelity	HIV Env fusion	eIF4H inh	others
Cc1cc(C)cc(OCC(=O)Nc2ccc(S(=O)(=O)Nc3ccccn3)cc2)c1	1	i	0	0	-10	nt	20	-1
COc1cc(S(=O)(=O)N2CCN(c3ccccc3)CC2)ccc1Cl	3	i	-2	-4	3	-7	nt	-2
CC(C)C(=O)NC(Nc1cccc([N+](=O)[O-])c1)C(Cl)(Cl)Cl (centres undefined)	-3	i	6	2	-11	nt	10	-11
O=c1ccc2cc3ccoc3cc2o1	-4	nt	2	3	-5	-11	nt	-1
COc1cc(OC)c(C2Nc3ccccc3NC3=C2C(=O)CC(C)(C)C3)cc1OC (centres undefined)	?	i	2	0	-18	-5	-6	?
COc1ccc(C2=Nn3c(nnc3-c3ccccn3)SC2)cc1	-1	i	4	3	38	-25	nt	-11
Cc1cc(/C=N/NC(=O)C(=O)N2CCCC2)c(C)n1-c1cccc(Br)c1	-4	i	-5	-4	1	-5	nt	-10
CCSc1cc(C2C(C(=O)OC)=C(C)NC3=C2C(=O)CCC3)c(C)o1 (centres undefined)	0	i	-2	1	-9	-13	-51	8
O=C(OCC1CCNCC1)c1ccc(F)cc1	nt	nt	-3	-1	nt	-9	-1	nt
Cc1ccccc1SC1CCN(Cc2nc(C3CC3)no2)CC1	-10	i	2	3	-8	nt	-25	-1
O=[N+]([O-])c1cccc(-c2csc(CS(=O)(=O)Cc3ccco3)n2)c1	-8	i	1	2	-8	-12	-1	1
O=P(COCCCCCOCP(=O)(c1ccccc1)c1ccccc1)(c1ccccc1)c1ccccc1	-12	i	-7	-9	1	nt	18	-3
CCCOc1ccc(Cc2c(O)nc(SC)[nH]c2=O)cc1C	12	i	1	3	-9	-12	3	5
O=C(COC(=O)c1ccc(F)cc1F)Nc1cccnc1Cl	nt	nt	0	-1	nt	-7	-5	nt
OCC[n+]1ccc(/C=C/c2c[nH]c3ccccc23)cc1	-6	i	-116	-3	6	nt	25	?

The closing 2 records of the part before open the next one.
SMILES	PABP polyA inh	Rce1 inhib	MT1-MMP act inh	MT1-MMP act inh RFP	CSC inhib	UUG fidelity	HIV Env fusion	eIF4H inh	others
O=C(COC(=O)c1ccc(F)cc1F)Nc1cccnc1Cl	nt	nt	0	-1	nt	-7	-5	nt
OCC[n+]1ccc(/C=C/c2c[nH]c3ccccc23)cc1	-6	i	-116	-3	6	nt	25	?
CCc1nccn1S(=O)(=O)c1cc(OC)ccc1OC	2	nt	-1	2	-13	-3	11	-4
CCCCCCOc1ccc(/C=C/C(=O)N2CCOCC2)cc1OC	0	i	4	-1	-8	0	2	-4
COc1ccc(CN(C)CC(=O)Nc2ccccc2C(=O)NC2CC2)cc1F	nt	nt	5	-4	0	-13	0	nt
CCOCCc1nnc(NC(=O)Cc2c(F)cccc2Cl)s1	-3	i	0	-1	-10	-18	-9	-5
Cc1ccc(Cn2nnc3c(=O)n(CC(=O)NCc4ccccc4)cnc32)cc1	29	nt	-8	-14	38	nt	-9	-12
